# Source: PubChem BioAssay (National Center for Advancing Translational Sciences (NCATS))
# Sfp inh – Sfp phosphopantetheinyl transferase inhibition; Q9F4F7; Biochemical Sfp PPTase activity, qHTS; Potency, µM, for inactives: max response, negative = inhibition, hits mostly inhibitors; 3.5% of 310,000 active; active means well fitted inhibition curve with a large enough effect; inconclusive means small, poorly fitted or top-dose-only effect, or another doubt; inactive means no such curve, though single readings can be large or run the other way;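 further: the enzyme is Sfp with the accession as filed and its product quenches rhodamine fluorescence; potency means the concentration at half of the fitted maximal effect; 0% = enzyme reaction without inhibitor and -100% = no enzyme wells; top concentration of the series not given in the record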
#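 Buffer: 50 mM Hepes-Na pH 7.6, 10 mM MgCl2, 0.01% Nonidet P-40, 0.01% BSA. Enzyme 15 nM, pre-exposed to compound 15 min; substrates then added and fluorescence change tracked over 30 min.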
# gsp antag – gsp mutant antagonism. gsp-mutant cells, cAMP HTRF, 30 min; control for the full effect not named in the record. Potency, µM (top dose mostly 76.9 µM), without a hit: at the top dose activity change, negative = inhibition, most hits filed as inhibitors. 0.4% of 340,000 active. AID 624288; active = falling curve of any shape with a large fitted effect; inconclusive = falling curve, mostly with a smaller effect; inactive = flat or rising curve; cell line not stated here;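 further: intracellular cAMP measured with PDE inhibitor Ro 20-1724 present during compound exposure; potency means the concentration at half of the fitted maximal effect; on the % scale 0 is the no-effect control and ±100 the full control effect; nearly all actives have a fitted effect of over 65% in size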
#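 Measurement of cellular cAMP by homogeneous time-resolved fluorescence following a 30 min compound exposure at 37C. The PDE inhibitor […] was present throughout; the assay buffer was DPBS with 0.05% BSA and 0.005% Tween 20.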
# ClpP mod – qHTS Assay for Activators of ClpP; AID 651965, 2013; ATP-dependent Clp protease proteolytic subunit (Bacillus subtilis (strain 168)), P80244; 1.9% of 340,000 active; Potency, µM (doses to about 57.5 µM), inactives show at the highest dose activity change, negative = active; purified B. subtilis ClpP, FRET peptide cleavage, 20 min; active = well fitted falling curve with a large enough effect; inconclusive = small, poorly fitted or top-dose-only effect; inactive = no such curve, though single readings can be large or run the other way; further: potency means the concentration at half of the fitted maximal effect; the source files actives as falling curves though it sought activators and does not explain the sign; nearly all actives have a fitted effect of over 65% in size; many hits overshoot -100%
# Target sequence (P80244 whole entry, looked up): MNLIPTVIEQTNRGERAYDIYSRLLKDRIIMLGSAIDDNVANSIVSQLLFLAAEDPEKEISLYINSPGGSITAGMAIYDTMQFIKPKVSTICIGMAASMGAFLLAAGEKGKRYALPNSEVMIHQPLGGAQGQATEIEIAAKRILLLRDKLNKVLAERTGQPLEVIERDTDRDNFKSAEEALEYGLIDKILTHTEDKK
#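 ClpP 10 microg/mL final, pH 8 Tris/KCl buffer with BSA, glycerol, Tween-20; compound pinned in; FRET-FV substrate; RT 20 min; Ex320/Em430; ΔFRET vs ADEP 5.8 microM, DMSO, no enzyme.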
# TRPV1 PAM – potentiators of human vanilloid receptor 1 (TRPV1); Q8NER1; TRPV1-expressing cells, Fluo-8 calcium influx, capsaicin EC20 potentiation; host cell line not named in the record; control for the full effect not named in the record; potentiation, % at 8.33 µM; 0.02% of 320,000 active; AID 540277; active means potentiation above 80%; inconclusive means 30% to 80%; inactive means below 30%; further: 0% is about no effect
#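 TRPV1-expressing cells were cultured overnight at 35.5C and loaded with Fluo-8 calcium dye for 40 to 90 min at room temperature. After a 10 s baseline, compound was added and calcium influx was read kinetically for 3 min (ex 480/em 520 nm).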
# TRPML1 blocker – blocks the human TRPML1 channel. Q9GZU1. TRPML1-inducible cells, Ca2+ dye fluorescence, FDSS; stronger effect = lower value; inhibition of EC80 agonist-evoked calcium signal. activity change, negative = inhibition, % (no concentration beside the values). 0.02% of 390,000 active; in the data active means activity change below about -50%; inconclusive means about -30% to -50%; inactive means above about -30%;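 further: stimulus is agonist 54-4 at its EC80 concentration; on the % scale 0 is the no-effect control and ±100 the full control effect; compound concentration not given in the record; the text of the record puts the active cut at -80%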
# Target sequence (Q9GZU1 whole entry, looked up): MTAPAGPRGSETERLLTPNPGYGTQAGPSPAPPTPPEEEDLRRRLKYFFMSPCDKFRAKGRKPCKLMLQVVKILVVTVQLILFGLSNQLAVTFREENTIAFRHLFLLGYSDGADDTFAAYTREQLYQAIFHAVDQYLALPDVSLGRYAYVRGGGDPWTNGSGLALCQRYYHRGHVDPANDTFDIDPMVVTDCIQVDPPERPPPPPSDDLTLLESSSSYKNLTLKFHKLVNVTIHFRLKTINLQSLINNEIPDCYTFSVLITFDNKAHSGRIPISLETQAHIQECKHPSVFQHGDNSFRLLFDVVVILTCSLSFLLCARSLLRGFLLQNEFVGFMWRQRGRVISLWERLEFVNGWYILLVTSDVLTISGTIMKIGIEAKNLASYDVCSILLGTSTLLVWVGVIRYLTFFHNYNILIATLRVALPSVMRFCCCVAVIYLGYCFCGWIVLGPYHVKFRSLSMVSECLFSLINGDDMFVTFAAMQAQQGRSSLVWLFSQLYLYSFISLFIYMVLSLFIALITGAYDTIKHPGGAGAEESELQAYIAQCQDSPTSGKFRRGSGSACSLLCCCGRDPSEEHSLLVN
#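 Tet-induced TRPML1-DL cells loaded with Ca8 no-wash calcium dye were read kinetically on FDSS. Compound addition was followed by EC80 agonist 54-4 (4 uM final); inhibition was read over 110 s.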
# Menin MLL FP FL – menin-MLL binding inhibition, fluorescein peptide; Fluorescence polarization, fluorescein-MLL peptide displacement from menin; FP activity change, % at 61.4 µM; 290,000 tested, under 10 active; inconclusive = falling polarisation curve, or a change in total fluorescence; inactive = total fluorescence flat and polarisation flat or rising; no compound was filed as active; the % refers to the polarisation; negative = inhibition;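 further: % of control where 0% means no effect; inhibitors lower the polarisation; unlabelled MLL peptide was the positive control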
# gsp agonist – gsp mutant agonism; gsp mutant cells, cAMP HTRF, 30 min; control for the full effect not named in the record; Potency, µM (titrated, usually from 76.9 µM), without a hit: top-dose activation (cAMP increase), hits mostly activators; 0.13% of 340,000 active; AID 624287; active = well fitted activation curve with a large enough effect; inconclusive = small, poorly fitted or top-dose-only effect, or another doubt; inactive = no such curve, though single readings can be large or run the other way; cell line not stated here;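 further: phosphodiesterase inhibitor Ro 20-1724 added with compounds to block cAMP breakdown; potency means the concentration at half of the fitted maximal effect; nearly all actives have a fitted effect of over 60% in size; about a fifth of the inactives were tested at one dose only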
#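 Cells stably selected in G418 were plated at 2000/well, grown 16-24 hr, then given compounds in DMSO with the PDE inhibitor […] (300 uM solution added) for 30 min at 37C; cAMP was read by HTRF.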
# Active calls of the source: *; ? = inconclusive; nt = no result given; & = joins results of further samples; [ ] = another dose, or the depositor's remark.
SMILES,Sfp inh,gsp antag,ClpP mod,TRPV1 PAM,TRPML1 blocker,Menin MLL FP FL,gsp agonist
COc1ccc(C(=O)CSc2nnc(COc3ccccc3)n2Cc2ccco2)cc1,-23.6%,-12.7%,-0.3%,11.4,32.0,5.5,9.5%
Nc1nnc(SCC(=O)OCC(=O)Nc2ccc(Br)cc2F)s1,-0.5%,-3.1%,-2.3%,-10.7,0.2,-5.1,-7.5%[15.4 µM]
O=C(C1=NN(c2ccccc2)C(=O)CC1)N1CCc2ccccc2C1,7.3%,0.2%,-0.7%,-0.4,-6.3,2.9,24.7%
COC(=O)c1c(-c2ccc(S(C)(=O)=O)cc2)sc2ccc(OC)cc12,nt,?,-12.6%,nt,42.0,nt,0.6%
O=C1OCCN1C(=O)[C@H]1[C@H](c2ccc(F)cc2)C(c2ccc(F)cc2)=NN1c1ccc(Br)cc1,17.1%&15.6%,-11.8%,3.9%,10.8,-14.6,?,nt
CCOC(=O)C(C(=O)OCC)C(C)C#CCN1CCCCC1 (stereo not given),-2.1%,3.3%,0.0%,-6.2,-0.6,4.5,0.0%
CCN1C(=O)CC(C(=O)Nc2ccc(F)cc2)SC1=Nc1ccc2c(c1)OCO2 (stereo not given),-6.5%,-15.2%,1.3%,-12.1,0.3,0.5,6.3%
CN(C)/C=C1/C=C(c2ccccc2)OC1=O,39.8µM*,-5.0%,-10.2%,3.2,4.0,1.0,26.9%
CCOC(=O)/C(=C\C=C1/Sc2cc(OCC)c(OCC)cc2N1CC)C(C)=O,-5.8%,?,-21.2%,-14.3,8.6,?,-1.8%[15.4 µM]
CCn1c(CN2CCOCC2)nnc1SCC(=O)Nc1ccccc1Cl,8.0%,3.5%,nt,-8.4,-18.0,-5.9,-9.7%[15.4 µM]
O=C(N/N=C\c1cccnc1)c1ccc(Cl)s1,11.3%,4.5%,-3.0%,-9.3,-13.2,-0.6,9.2%
CCC(C(=O)OCC(=O)N(C)c1c(N)n(Cc2ccccc2)c(=O)[nH]c1=O)c1ccccc1 (stereo not given),nt,-2.4%,nt,15.4,-7.2,nt,1.1%[15.4 µM]
Cc1cc(NS(C)(=O)=O)c(=O)n(Cc2cccc(F)c2)c1,-6.1%,6.2%,4.0%,5.6,-8.7,5.4,2.7%
O=C(COc1ccc(S(=O)(=O)N2CCCCC2)cc1Cl)N1CCOCC1,8.9%,-1.4%,?,1.0,-7.9,?,4.5%[15.4 µM]
Cc1ccc(NC(=O)CNC(=O)c2ccco2)cc1Cl,16.8%,-4.9%,0.6%,-5.3,-5.8,-1.7,-19.6%[15.4 µM]
O=C(COC(=O)c1cc(S(=O)(=O)N2CCOCC2)ccc1F)NCc1ccc2c(c1)OCO2,nt,-10.0%,nt,nt,-2.8,nt,-38.7%[inhibitor]
COc1ccc(NC(=O)Nc2cccc3c2O[C@H](CN(C)S(=O)(=O)c2c(C)noc2C)[C@@H](C)CN([C@H](C)CO)C3=O)cc1,nt,-8.2%,0.9%,nt,25.8,nt,nt
Cc1ccc(Nc2nnc(SCc3cc(=O)n4ccsc4n3)s2)c(C)c1,-20.7%,0.1%,-7.0%,4.1,3.8,5.8,-19.3%
COc1ccc(/C(N)=N/OC(=O)c2ccc3c(c2)OCO3)cc1OC,3.2%,0.4%,-0.9%,1.5,2.8,1.5,44.3%
Cc1cc(NC(=O)c2ccc(Br)c([N+](=O)[O-])c2)no1,19.5%,-10.2%,nt,-23.0,-10.7,0.6,-2.0%
Cc1ccc(-c2noc(CCCc3ccccc3)n2)cc1,-2.5%,-4.9%[15.4 µM],-3.0%,-9.4,-11.9,1.6,4.1%
COc1cc(OC)cc(N(C(=O)CNC(=O)c2cccs2)C(C(=O)NCC2CCCO2)c2ccccc2)c1 (stereo not given),17.1%,-1.3%,0.5%,?,-5.5,0.3,-0.8%[15.4 µM]
O=C1/C(=C\c2ccc(O)cc2)CCC1CNc1ccc(Cl)cc1 (stereo not given),nt,-4.0%,-4.8%,nt,9.0,nt,17.0%
FC(F)(F)c1ccc(/C=N/n2c(COc3ccccc3)n[nH]c2=S)cc1,?,-12.7%,-0.1%,-22.8,-6.0,-8.2,?
Cc1ccc(-n2c(Cc3noc4ccccc34)n[nH]c2=S)cc1,0.5%,-5.2%,-2.1%,0.0,-13.8,8.3,-13.7%[15.4 µM]
CS(=O)(=O)Nc1ccccc1C(=O)NCCSc1ccccc1,7.3%,-3.7%,0.0%,-3.2,-2.6,-1.1,-1.5%[15.4 µM]
Cc1cc(OCCOCCN(C)C)ccc1Cl,-29.4%,10.7%,0.4%,4.8,22.5,5.7,-0.2%
CCCN=C1N(C)C[C@@H]2[C@@H]3C(=O)N(C)C(=O)[C@@H]3[C@](CC)(C(=O)OC)N12,nt,6.8%,-0.1%,nt,-5.2,nt,nt
Cc1cccc(N2CCN(C(=O)CN(C)S(=O)(=O)c3ccc4c(c3)CCC(=O)N4)CC2)c1C,-3.9%,-18.2%,0.8%,-25.4,-3.7,-2.0,2.2%
O=[N+]([O-])c1nn(-c2ccc3c(c2)OCCO3)n(O)c1=NCc1ccc(F)cc1,-0.9%,3.8%,-1.9%,7.9,8.3,-0.9,1.6%
Cc1ccc(N2CC(C(=O)NC3CC3)CC2=O)cc1Cl (stereo not given),23.2%,-3.5%,nt,-11.9,10.9,-1.8,9.9%[15.4 µM]
Brc1ccccc1-c1nnc2sc(-c3ccc4c(c3)OCCO4)nn12,-8.5%,-2.8%,?,-9.1,-1.5,0.0,-50.0%[inhibitor]
CCCCC(=O)Nc1ccc(NC(=S)NC(=O)CC(C)C)cc1OC,-2.8%,10.6%,3.3%,5.2,0.5,19.9,0.4%
CNC(=O)/C(=C\c1cccc(Oc2ccccc2)c1)NC(=O)c1ccccc1,8.4%,-0.1%,-1.6%,4.5,-6.0,2.1,-2.7%[15.4 µM]
CN(C)S(=O)(=O)c1cccc(NC(=O)COC(=O)c2cccn2C)c1,-6.9%,3.9%,-0.1%,-0.6,3.7,-2.2,22.5%
Cc1ccc(Sc2sc(=O)n(C)c2S(=O)(=O)c2ccc(C)cc2)cc1,-3.8%,4.8%,2.8%,3.1,-1.2,-3.5,29.7%
CC1=CC(C)(C)NC(=S)N1c1ccc(N(C)C)cc1,nt,8.7%,nt,nt,-8.9,nt,13.4%
COc1ccc(NC(=O)N2CCCCC2c2cccnc2)cc1 (stereo not given),6.5%,5.1%,-4.2%,14.8,0.0,-10.9,-24.4%
COc1ccc(CCNC(=O)c2cccc(S(=O)(=O)NC(C)c3ccccc3)c2)cc1 (stereo not given),nt,-11.0%,0.2%,6.3,-7.9,nt,?
Cc1ccc(N=C(N(C)C)P(=O)(N(C)C)N(C)C)c(C)c1,10.0%,8.6%,nt,-1.7,-9.8,1.0,?
COc1ccc(OC)c(C(=O)NC2CCSc3ccccc32)c1 (stereo not given),1.2%,?,nt,-13.5,6.8,-1.4,-2.2%[15.4 µM]
Cc1nn(-c2ccc(Cl)cc2)c(=O)c2c(C)noc12,-8.4%,-18.9%,0.1%,-0.5,-12.1,2.5,3.3%[15.4 µM]
CCC1(C)Cc2c(sc3c2c(=O)n(C)c2nnc(SCc4ccccc4)n32)CO1 (stereo not given),9.6%,-0.9%,-1.5%,2.7,6.5,-1.0,7.1%
Cn1cnnc1SC(C(=O)Nc1ccc(F)cc1)c1ccccc1 (stereo not given),11.9%,0.5%,14.3%,22.3,-5.7,2.9,-11.1%
O=C(CN1C(=O)NC2(CCc3ccccc32)C1=O)NCc1ccc(F)cc1 (stereo not given),nt,11.4%,-1.7%,-4.2,1.8,nt,-16.2%
CCOC(=O)C1=C(COC(=O)COc2ccc(C(C)=O)cc2)NC(=O)NC1C (stereo not given),nt,-16.4%,nt,20.1,-0.6,nt,-6.7%[15.4 µM]
CN1C(=S)SC(N(O)C(=O)Nc2cccc3ccccc23)C1(C)C (stereo not given),-17.2%,6.6%,31.6µM*,5.5,-10.1,1.4,-11.0%
COc1cc(C(=O)OCCNC(=O)c2ccncc2)cc(OC)c1OC,5.4%,4.4%,-3.3%,3.4,0.0,1.2,-6.6%
N#Cc1ccccc1NC(=O)c1ccc(-c2ccccc2Cl)o1,-4.5%,-14.1%,77.7%,-4.5,15.0,4.9,-8.5%
COc1ccc(/C(C)=N\NC(=O)CNC(=O)C(c2ccccc2)c2ccccc2)cc1OC,-23.1%,5.0%,0.8%,14.8,21.8,-0.5,?

# Later entries
SMILES,Sfp inh,gsp antag,ClpP mod,TRPV1 PAM,TRPML1 blocker,Menin MLL FP FL,gsp agonist
COc1c(Cl)cccc1-c1cn2ccccc2n1,-6.9%,-9.8%,nt,-15.1,14.2,-0.1,-0.3%[15.4 µM]
CCOc1c(Cl)cc(CNCc2ccccn2)cc1OC,3.4%,8.4%,1.7%,-15.3,-18.4,-2.1,16.1%
O=C(Nc1cccc(Cl)c1N1CCOCC1)c1ccc([N+](=O)[O-])o1,17.5%,6.2%,1.3%,13.6,-20.6,0.8,?
Cc1ccc(CS(=O)(=O)CCC(=O)NCc2cccs2)cc1,2.5%,8.0%,-2.1%,11.0,-10.4,4.3,14.1%
O=C1CCCN1CC1CCN(Cc2nc(CC3CC3)no2)CC1,-7.5%,4.7%,nt,?,22.6,4.4,-9.6%[15.4 µM]
COc1ccc(/C(=N/OC(C)=O)c2nccc3cc(OC)c(OC)cc23)cc1OC,-5.6%,-2.5%,-3.9%,5.6,-1.9,-0.8,0.5%
CSCCC(NS(=O)(=O)c1ccccc1F)C(=O)Nc1cccc(C)n1 (stereo not given),14.5%,-3.3%,1.3%,-5.6,-7.3,nt,1.9%[15.4 µM]
Cn1c(=O)cc(SCC(=O)Nc2cccnc2)c2ccccc21,10.4%,-0.8%,?,-10.2,-2.4,0.6,17.8%
Cc1ccc(C2=NS(=O)(=O)N(C)C(C(=O)NC3CCCCC3)=C2)cc1,9.6%,-6.8%,-2.5%,5.4,-12.5,3.4,13.6%
O=C(CSc1nc2c(sc3ccccc32)c(=O)n1CCO)NCC1CCCO1 (stereo not given),6.9%,16.4%,-5.1%,9.5,-14.0,0.2,?
Cc1cc(C)c2cc(C#N)c(NCCNC(=S)NCCCN3CCOCC3)nc2c1,3.0%,-14.4%,3.9%,1.9,-9.8,4.0,-10.5%
Cc1ccc(Nc2nc(C)c(CCC(C)C)c(=O)[nH]2)cc1,11.1%,10.4%,2.8%,-21.5,0.7,2.0,3.4%
COC(=O)CSc1nnc(CNC(=O)c2ccccc2OC)n1C,18.6%,6.3%,-1.0%,-14.8,22.7,2.2,27.4%
